KCNQ2 inh: KCNQ2 channel blockers in CHO-K1 cells – cell-based, FluxOR thallium flux, B-score, primary screen (AID 2156); O88943; 20 min; hits give low values; only compounds with negative scores are shown here; some inactives read as strong as hits; B-score at 10 µM; 1.1% of 310,000 active;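 active = fluorescence ratio B-score at most minus 3 library SDs, with starting brightness B-score within 2 library SDs, cut at about -5.5 in these data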
Target sequence (O88943 whole entry, looked up): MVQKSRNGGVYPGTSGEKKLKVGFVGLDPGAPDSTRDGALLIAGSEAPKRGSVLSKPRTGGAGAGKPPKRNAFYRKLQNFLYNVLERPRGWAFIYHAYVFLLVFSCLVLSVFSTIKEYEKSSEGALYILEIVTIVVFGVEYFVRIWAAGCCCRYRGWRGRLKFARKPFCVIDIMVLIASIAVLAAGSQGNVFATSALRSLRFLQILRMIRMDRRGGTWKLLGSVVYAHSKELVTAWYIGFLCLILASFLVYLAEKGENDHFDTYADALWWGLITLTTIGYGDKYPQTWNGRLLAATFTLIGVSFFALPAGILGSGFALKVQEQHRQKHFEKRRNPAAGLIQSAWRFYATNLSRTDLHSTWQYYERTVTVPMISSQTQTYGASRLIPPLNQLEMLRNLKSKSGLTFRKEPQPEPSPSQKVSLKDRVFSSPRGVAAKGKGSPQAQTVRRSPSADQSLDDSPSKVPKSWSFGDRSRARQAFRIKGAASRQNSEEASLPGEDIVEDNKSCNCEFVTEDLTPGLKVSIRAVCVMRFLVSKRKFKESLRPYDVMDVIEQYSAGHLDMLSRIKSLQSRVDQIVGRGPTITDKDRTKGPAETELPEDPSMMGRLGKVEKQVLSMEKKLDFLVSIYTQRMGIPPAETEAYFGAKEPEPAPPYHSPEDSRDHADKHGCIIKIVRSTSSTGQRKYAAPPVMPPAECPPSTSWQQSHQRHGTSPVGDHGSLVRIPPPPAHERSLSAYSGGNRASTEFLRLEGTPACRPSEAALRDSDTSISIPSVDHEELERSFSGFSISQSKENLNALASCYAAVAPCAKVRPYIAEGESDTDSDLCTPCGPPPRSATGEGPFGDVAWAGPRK
KCNQ2 inh baseline: recorded beside KCNQ2 inh, whose call it bears; B-score; measured here: initial fluorescence intensity artifact check;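 brightness before thallium and not channel activity; 0 = typical well and far values either way flag optical interference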
Active calls of the source: *; i = inactive. Some of the compounds tested. The share of hits here may be higher or lower than overall.

SMILES	KCNQ2 inh	KCNQ2 inh baseline
Cc1ccc(C(=O)N/C(=C/c2ccco2)C(=O)N2CCCCCC2)cc1	i	-1.37
COc1ccccc1-c1cc(C(=O)Nc2cc(C)nn2-c2ccccc2)no1	i	-0.53
CC12COC3(P(=O)(c4ccccc4)c4ccccc4)CC1CCC23CP(=O)(c1ccccc1)c1ccccc1 (configuration not stated)	i	1.15
Cc1nn2c(C)c(C(=O)Nc3ccccc3)cnc2c1-c1ccccc1	i	1.38
Cc1nc(C(=O)NC2CCCCC2)sc1C1(C)CC(c2cccnc2)=NO1 (configuration not stated)	i	0.43
COc1ccc(OC)c(N/C(=N/C(=S)Nc2ccccc2)Nc2nc(C)cc(C)n2)c1	i	-0.12
CC1Cc2ccccc2N1C(=O)Cn1cnc2ccccc2c1=O (configuration not stated)	i	0.35
COc1ccccc1CN(C)C(=O)c1cc(-c2cc(OC)c(OC)c(OC)c2)nc2ccccc12	i	-0.06
CCOCCCNC(=O)CCC(=O)NNc1nc2ccccc2c2nc(C)nn12	i	-1.39
O=C(Nc1ccc(Cl)cc1)Nn1cnnc1	i	0.23
CCn1cc(CNC(=O)C2CCC(=O)N(CCc3cccc(F)c3)C2)cn1 (configuration not stated)	i	0.59
COC(=O)c1c(NC(C)=O)sc(C(=O)Nc2ccccc2OC)c1C	i	0.34
CC(=O)c1c(N2CCN(Cc3ccccc3)CC2)nc(=S)n(Cc2ccccc2)c1C	i	1.44
O=C(COC(=O)c1ccccc1C(=O)c1ccc(Cl)cc1)NCc1ccccc1	i	-0.16
Cc1ccc(-c2cc(C(=O)N/N=C/c3ccc([N+](=O)[O-])o3)c3ccccc3n2)o1	i	0.68
Fc1ccccc1OCC1CCCN(Cc2nc(CC3CC3)no2)C1 (configuration not stated)	i	0.08
Cc1ccc(C)c(N2CCN(CC(=O)Nc3ccc([N+](=O)[O-])cc3C(=O)Nc3ccccc3F)CC2)c1	i	0.56
O=C(CSc1nnc(-c2ccc(O)cc2)o1)NNC(=O)c1ccncc1	i	-1.74
COc1ccc(CC(=O)OCC(=O)NCc2ccc(Cl)cc2)cc1	i	1.15
Cc1c(C(=O)NC(=S)Nc2ccc(N3CCOCC3)cc2)cccc1[N+](=O)[O-]	i	-0.24
COc1ccc(N2CCN(C(c3ccccc3)c3nnnn3Cc3ccc(F)cc3)CC2)cc1 (configuration not stated)	i	-0.3
COc1ccc(CCNC(=O)CSc2nnc(-c3cccc(C)c3)o2)cc1OC	i	-3.02
CCOC(=O)c1c(C)[nH]c(C)c1C(=O)CSc1nc2ccccc2c(=O)n1-c1ccc(F)cc1	i	-0.02
CC(C)[C@@H](C(=O)NC1CCCC1)N1C(=O)N2CCc3c([nH]c4ccccc34)[C@@]2(C)C1=O	i	-1.55
COc1ccccc1NC(=O)c1ccc2c(c1)OCO2	i	0.1
CCC(C)(C)NC(=O)C(c1ccc(C)cc1)N(CC1CCCO1)C(=O)CNC(=O)c1cccs1 (configuration not stated)	-5.81*	0.01*
Nc1ccc2oc(-c3ccccn3)nc2c1	i	-0.88
CCCCn1nc(C(=O)OCC(=O)Nc2sccc2C(N)=O)c2ccccc2c1=O	i	-0.3
COc1cc(S(=O)(=O)Nc2ccc(C)cc2)ccc1N=Cc1c(C)c(C#N)c(=O)n(C)c1O	i	-0.25
CCOC(=O)C1(CCOc2ccccc2)CCN(Cc2cccc3c2OCO3)CC1	i	0.03

Arranged by the number under KCNQ2 inh baseline (smallest number first): 3 of the compounds above
Molecule	KCNQ2 inh	KCNQ2 inh baseline
Cc1c(C(=O)NC(=S)Nc2ccc(N3CCOCC3)cc2)cccc1[N+](=O)[O-]	i	-0.24
O=C(COC(=O)c1ccccc1C(=O)c1ccc(Cl)cc1)NCc1ccccc1	i	-0.16
COc1ccccc1CN(C)C(=O)c1cc(-c2cc(OC)c(OC)c(OC)c2)nc2ccccc12	i	-0.06

The results go on.
SMILES	KCNQ2 inh	KCNQ2 inh baseline
CC1=CC(C)C2(COC(=O)Nc3ccccc3)COC(C)C1C2C (configuration not stated)	i	0.38
N#CC(C#N)=C1C(=O)N(CCN2CCOCC2)c2ccccc21	i	-0.64
CCNC(=O)COC(=O)c1cccc(Br)c1	i	0.76
O=C(NCCC1=CCCCC1)N[C@@H](Cc1ccccc1)C(=O)O	i	1.39
CCN(CC)S(=O)(=O)c1ccc(S(=O)(=O)NCC2CCCO2)cc1 (configuration not stated)	i	0.07
C=CCc1ccc(OCc2ccc(C(=O)O)o2)c(OC)c1	i	-1.72
O=C(CCCN1C(=O)/C(=C\c2cccc(Br)c2)SC1=S)Nc1cccnc1	i	-0.39
Cc1onc(-c2ccccc2)c1C(=O)Nc1nc(-c2ccccc2)cs1	-7.24*	-0.49*
CCCCNC(=O)C(=O)Nc1cc2c3c(c1)CCC(=O)N3CCC2	i	1
O=C(NCc1ccccc1)c1ccc(NC(=O)C2CCCO2)cc1 (configuration not stated)	i	-0.74
Fc1ccc(NC(=S)N2CCc3ccccc3C2)c(F)c1	i	-1.39
N#Cc1ccc(-c2ccc(OCC(=O)Nc3cccnc3)cc2)cc1	i	2.03
O=C(CCSc1ccccc1Cl)Nc1cccc([N+](=O)[O-])c1	i	0.3
CCC(=O)N1CCc2cc(S(=O)(=O)CCC(=O)Nc3ccc(C(C)=O)cc3)ccc21	i	2.45
COC(=O)c1ccc(COC(=O)c2ccccn2)cc1	i	1.17

Part of the list above, with two lines to a compound.
Each structure is followed by: KCNQ2 inh, KCNQ2 inh baseline
CCNC(=O)COC(=O)c1cccc(Br)c1
 : i, 0.76
O=C(NCCC1=CCCCC1)N[C@@H](Cc1ccccc1)C(=O)O
 : i, 1.39

The listing continues.
SMILES	KCNQ2 inh	KCNQ2 inh baseline
C=CCNC(=O)c1ccc(C)cc1Cl	i	0.43
Cc1cccc(OCC(=O)N/N=C/c2cc([N+](=O)[O-])ccc2N2CCOCC2)c1	i	1.69
COc1ccc(OC)c(CCNC(=O)c2ccc3c(c2)N(Cc2ccccc2)CCS3)c1	i	-1.13
CC(C)(C)C(=O)N/C(N)=N/c1nc2ccccc2o1	i	-1.8
CCOc1ccc(S(=O)(=O)NCc2cccnc2)c2ccccc12	i	0.74
COc1cc(C)ccc1OCCOCCOc1ccccc1[N+](=O)[O-]	i	0.88
CSc1ccc(CNC(=O)Cn2nc(C)c3c(C)n(-c4ccc(C)cc4)nc3c2=O)cc1	i	-2.1
CC(C)CCNC(=O)c1onc(CSc2ccc(Cl)cc2)c1C(=O)NCCC(C)C	i	-1.85
O=C(COC(=O)CNC(=O)c1ccco1)NCc1ccc(F)cc1	i	-0.35
COC(=O)C1CCN(C(=O)COC(=O)CCc2nc3ccccc3c(=O)[nH]2)CC1	i	-0.74
O=c1[nH][nH]c2nc(C(F)(F)F)cc(C(F)(F)F)c12	i	-0.59
COc1cccc(N(CC(=O)N2CCOCC2)S(C)(=O)=O)c1	i	1
COc1ccc(N2C(=O)C(CC(=O)O)S/C2=C\C(C)=O)cc1 (configuration not stated)	i	0.84
O=C(Nc1ccccc1-c1nnn(CC(=O)N2CCCc3ccccc32)n1)c1ccc(Cl)cc1	i	0.05
COc1ccc(CN(Cc2cc3ccc(C)cc3[nH]c2=O)Cc2nnnn2C2CCCC2)cc1	i	-0.42
CC(C(=O)NC1C=CS(=O)(=O)C1)N1C(=O)/C(=C\c2ccccc2)SC1=S (configuration not stated)	i	-1.82
CC(C)(C)OC(=O)C(Cc1ccc(OC(C)(C)C)cc1)NC(=O)CNC(=O)OCc1ccccc1 (configuration not stated)	i	0.88
CCOc1ccc(OCCCCNCCN)cc1	i	-0.05
CCOC(=O)c1cc(CC)sc1NC(=O)Cc1ccsc1	i	-1.29
COc1cc(C(=O)NC2CCCCC2)ccc1OCc1ccc(Cl)cc1Cl	i	-1.09
CCCOc1ccc(/C=C/C(=O)Nc2ccc([N+](=O)[O-])cc2C)cc1	i	-2.15
C=CCN1C(=O)C2(C(C(=O)c3ccc(C)o3)=C(O)C(=O)N2CCCN2CCOCC2)c2ccccc21 (configuration not stated)	i	-1.09
CSCc1c(C(=O)NCCc2ccccn2)oc2ccccc12	i	0.26
Cc1ccc(-n2c(SCC(=O)N3CC(=O)Nc4ccccc43)nc3ccccc3c2=O)cc1C	i	-0.88
N/C(CCN1CCOCC1)=N/O	i	0.03
Cc1ccc(CN(C(=O)Cn2nnc3ccccc32)C(C(=O)NCc2ccco2)c2cccs2)cc1 (configuration not stated)	i	0.13
CC(C)C[C@H](N)c1nnc(SCc2ccc(Cl)cc2)o1	i	1.91
O=C(NC1CCCC1)c1ccc(COCC(F)(F)C(F)F)o1	i	0.04
COC(=O)Cn1c(=O)n(CCc2ccccc2)c(=O)c2c3c(sc21)CCCC3	i	-0.74
CCCCCOc1ccc(C(=O)C(c2ccccc2)N2CCOCC2)cc1 (configuration not stated)	i	-2.11
CCc1c(C)sc(NC(=O)c2cc(CC(C)C)on2)c1C#N	i	0.14
CCOc1ccccc1CSc1nc2ccccc2[nH]1	i	0.26
COc1ccc(N(C)C(=O)Cc2c(C(=O)O)[nH]c3ccccc23)cc1	i	1.06
COC(=O)C1=C(C)N(c2cccc(Cl)c2)C(=O)C1	i	1.98
COc1ccc(-c2noc(C3CCCN(S(=O)(=O)c4cccc(Cl)c4)C3)n2)cc1OC (configuration not stated)	i	-0.03
CCCCn1c(N)c(N(CCC(C)C)C(=O)C2=COCCO2)c(=O)[nH]c1=O	i	2.33
CCOCCOC(=O)C1=C(C)N(C)C(=O)NC1c1ccccc1Cl (configuration not stated)	i	-0.08
CC1CCCC(N2C(=O)NC(NC(=O)c3ccco3)(C(F)(F)F)C2=O)C1C (configuration not stated)	i	-1.37
O=S(=O)(c1cnc[nH]1)N1CCc2ccccc21	i	2.1
COc1ccc(N2CCN(S(=O)(=O)c3c(C)[nH]c(C)c3C(=O)N3CCCC3)CC2)cc1	i	-1.39
Cc1ccc(NC(=O)CS(=O)CC(=O)N(C(C)C(=O)NC2CCCCC2)C(C)(C)C)cc1 (configuration not stated)	i	2.33
O=C(COC(=O)c1cc(-c2cccs2)nc2ccccc12)NCc1ccco1	i	0.04
COc1ccc(OC)c(NC(=O)NCc2ccc(F)cc2)c1	i	0.37
NC(=O)c1ccccc1NC(=O)CCc1ccccc1	i	1.96
O=C(c1cccs1)N1CCCC(c2nc3c(nnn3Cc3ccc(F)cc3)c(=O)[nH]2)C1 (configuration not stated)	i	-0.38

A different layout for part of the listing above.
O=S(=O)(c1cnc[nH]1)N1CCc2ccccc21
  KCNQ2 inh = i; KCNQ2 inh baseline = 2.1

COc1ccc(N2CCN(S(=O)(=O)c3c(C)[nH]c(C)c3C(=O)N3CCCC3)CC2)cc1
  KCNQ2 inh = i; KCNQ2 inh baseline = -1.39

Next part
SMILES	KCNQ2 inh	KCNQ2 inh baseline
Cc1sc(NC(=O)c2ccco2)c(C(c2cccnc2)N2CCCC2)c1C (configuration not stated)	i	0.2
O=C(c1ccccc1F)N1CCN(S(=O)(=O)c2ccc(S(=O)(=O)N3CCCCCC3)cc2)CC1	i	0.84
COc1cccc(OCc2cc(C3Nc4ccccc4C(=O)N3Cc3ccco3)ccc2OC)c1 (configuration not stated)	-5.87*	-0.39*
CC1C=CCC2C(=O)N(c3ccc(OC(=O)c4cccs4)cc3)C(=O)C12 (configuration not stated)	i	-1.42
Cc1ccccc1NC(=O)CNc1ccccc1C(=O)NCc1ccco1	i	0.01
CN1CCN(CCNC(=O)Nc2ccc(Cl)cc2)CC1	i	-0.76
CCOC(=O)c1cc(C#N)c(N2CCCC2)nc1-c1ccccc1	i	0.18
CC(=O)Nc1ccc(NC(=O)C(C)OC(=O)c2ccc(N(C)C)cc2)cc1 (configuration not stated)	i	1.28
CCCc1cc(CNC(=O)C2CCC(=O)N(Cc3ccccc3OC)C2)on1 (configuration not stated)	i	-1.48
Clc1ccc(Cl)c(OCCCCN2CCNCC2)c1	i	-1.41
CN1CCN(S(=O)(=O)c2ccc3ccccc3c2)CC1	i	1.47
COc1cccc(OCc2cc(C(=O)N3CCC(c4ccncc4)CC3)no2)c1	i	0.13
CC1(C)Cc2c(sc(NC(=O)c3ccc(S(=O)(=O)N4CCCC4)cc3)c2C#N)C(C)(C)N1	i	1.24
C=CCn1c(CCc2ccccc2)nnc1SCC(=O)OC	i	0.36
Cc1ccc(NC(=S)NCCN(C2CCCCC2)C2CCCC2)cc1	i	0.26

5 entries from above, sorted by number of heavy atoms, ascending:
SMILES	KCNQ2 inh	KCNQ2 inh baseline
CN1CCN(CCNC(=O)Nc2ccc(Cl)cc2)CC1	i	-0.76
CC1C=CCC2C(=O)N(c3ccc(OC(=O)c4cccs4)cc3)C(=O)C12 (configuration not stated)	i	-1.42
Cc1sc(NC(=O)c2ccco2)c(C(c2cccnc2)N2CCCC2)c1C (configuration not stated)	i	0.2
CCCc1cc(CNC(=O)C2CCC(=O)N(Cc3ccccc3OC)C2)on1 (configuration not stated)	i	-1.48
COc1cccc(OCc2cc(C3Nc4ccccc4C(=O)N3Cc3ccco3)ccc2OC)c1 (configuration not stated)	-5.87*	-0.39*

(listing goes on)
SMILES	KCNQ2 inh	KCNQ2 inh baseline
Cc1c(Cl)c(C(=O)N2CCCC2)nn1C	i	0.13
CCOc1ccccc1NC(=O)C1=C(C)NC(=S)NC1c1cccs1 (configuration not stated)	i	-0.31
CC(CCc1ccccc1)NC(=O)CSc1nnnn1C (configuration not stated)	i	-0.47
O=C(c1cccc(Cl)c1)N1CCC(=O)N(C(COCc2ccccc2)Cc2ccccc2)CC1 (configuration not stated)	-5.8*	1.02*
CN(CC(=O)N1CCCCCC1)S(=O)(=O)c1ccccc1	i	-0.54
CCN(CC)S(=O)(=O)c1ccc(N2CCOCC2)c(NC(=O)Cc2cccc3ccccc23)c1	i	-0.05
Cc1ccc(C(=O)c2cc(C)sc2NC(=O)CN2CCN(C(=O)c3ccco3)CC2)cc1	i	-0.03
Cc1cc(=O)oc2ccc(OC(=O)CC(C)C)cc12	i	-0.99
Cn1cccc1C(C(=O)NC1CCCCC1)N(C(=O)Cc1cccs1)C1CC1 (configuration not stated)	i	0.24
O=C(/C=C/c1ccco1)Nc1ccc(S(=O)(=O)N2CCOCC2)cc1	i	0.34
CCC1C/C(=C\c2cc(OC)c(OC)cc2OC)C(=O)/C(=C/c2cc(OC)c(OC)cc2OC)C1 (configuration not stated)	i	1.34
Cc1ccc(N(CC(N)=O)C2SC(=O)N(C)C2=O)cc1 (configuration not stated)	i	0.51
COc1ccc(S(=O)(=O)n2cccc2)cc1	i	0.15
